Screens as filed in PubChem BioAssay.
VDR inh: vitamin D3 receptor (human) inhibition; Potency, µM, without a hit: max response, negative = inhibition, usual class: inhibitors; 400,000 compounds, 0.93% hits; VDR-SRC2-3 peptide fluorescence polarization, 2 h; active means well fitted inhibition curve with a large enough effect; inconclusive means small, poorly fitted or top-dose-only effect, or another doubt; inactive means no such curve, though single readings can be large or run the other way; further: series mostly up to about 120 µM
Target sequence (P11473 whole entry, looked up): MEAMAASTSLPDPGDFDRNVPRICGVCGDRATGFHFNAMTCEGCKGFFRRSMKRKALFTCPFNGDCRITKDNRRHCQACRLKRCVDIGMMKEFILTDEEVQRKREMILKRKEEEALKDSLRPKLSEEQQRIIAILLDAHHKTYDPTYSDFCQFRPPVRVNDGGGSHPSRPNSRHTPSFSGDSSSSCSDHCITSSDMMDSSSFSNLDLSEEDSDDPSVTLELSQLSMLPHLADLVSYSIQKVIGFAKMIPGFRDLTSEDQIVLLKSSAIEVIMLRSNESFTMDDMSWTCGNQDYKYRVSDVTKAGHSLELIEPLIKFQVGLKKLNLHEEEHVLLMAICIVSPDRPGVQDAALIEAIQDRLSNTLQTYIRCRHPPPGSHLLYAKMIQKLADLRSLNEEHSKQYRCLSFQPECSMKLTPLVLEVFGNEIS
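The screen uses fluorescence polarization to detect compounds that interfere with recruitment of the SRC2-3 coactivator peptide to VDR; plates are read after 2 h at room temperature.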
* hit, by the source's call; ? = inconclusive; & = joins results of further samples. On the % scale 0 is the no-effect control and ±100 the full control effect; potency means the concentration at half of the fitted maximal effect.

SMILES | VDR inh
O=C(Cn1[nH]c(=O)c2ccccc2c1=O)OCC(=O)c1ccccc1Cl | -10%
CC(C)(C)c1csc(SCC(=O)Nc2ccc(Cl)cn2)n1 | 22%
Cc1nc(SCC(=O)NC2CCCC2)[nH]c(=O)c1C | 3%
Cc1ccc(NC(=S)NN2CCOCC2)c(C)c1 | -14%
Cc1nn(-c2ccccc2)c(OC(=O)c2cccs2)c1S(=O)(=O)c1ccccc1 | 6%
CN(C(=O)COC(=O)c1cccc(Cl)c1)C1CCS(=O)(=O)C1 (centres undefined) | -21%
O=C(Cc1ccccc1)Nc1ccc2[nH]ncc2c1 | 5%
CCCC(=O)N(Cc1cccnc1)c1nc2c(OC)ccc(Cl)c2s1 | -22%
CC(NC(=O)C1(S(=O)(=O)c2ccc(Cl)cc2)CC1)c1ccccc1 (centres undefined) | 1%
CC(C)Oc1cccc(-n2c(CCc3c[nH]c4ccc(Br)cc34)nc3ccccc3c2=O)c1 | -2%
O=C(NC1CCN(Cc2ccccc2)CC1)c1ccc(Cl)cc1Cl | -20%
Cc1ccn2c(NC3CCCC3)c(-c3ccncc3)nc2c1 | -12%
CC(=O)c1ccccc1OCCOCCOc1ccccc1C(C)=O | -15%
COc1ccc(NC(=O)CN(C)S(=O)(=O)c2ccc3c(c2)CC(C)N3C(C)=O)cc1OC (centres undefined) | 4%
C#CCOCCOCCOCCNc1nc(N2CCN(C(=O)[C@H](CCCCN)n3cc([C@@H](N)C(C)CC)nn3)CC2)nc(N2CCN(C(=O)[C@H](Cc3ccc(O)cc3)n3cc([C@@H](N)C(C)CC)nn3)CC2)n1 (some centres undefined) | 5%
COc1cc(NC2c3ncccc3C(=O)N2Cc2ccco2)cc(OC)c1OC (centres undefined) | 6%
COc1cccc(S(=O)(=O)N2CCN(Cc3ccc4c(c3)OCO4)CC2)c1 | -10%&14%
O=C(NCCN1CCN(C(=O)c2cccc(OC(F)F)c2)CC1)c1cccc(OC(F)F)c1 | 0%
CCOC(=O)c1c(C)[nH]c(C)c1S(=O)(=O)N1CCCC(C(=O)Nc2ccc(OC)c(OC)c2)C1 (centres undefined) | -4%
Cc1cc(C)c(C(=O)CC(=O)c2ccccc2Cl)c(O)c1 | -22%
COCCn1c(SCC(=O)c2c(N)n(C)c(=O)n(C)c2=O)nc2ccccc21 | 2%
COC(=O)Nc1sccc1C(=O)Nc1sccc1C(=O)OC | 10%
CC(C)n1c(-c2cccnc2)nc2cnccc21 | -5%
Cc1cc(NC(=O)c2cncc(Br)c2)ccc1NC(=O)c1cc2ccccc2o1 | 0%
Clc1ccc(-c2nnc(-c3ccccc3)o2)c(Cl)c1 | -22%
CC1CCCN(C(=O)CCNS(=O)(=O)c2ccc3c(c2)c(=O)n(C)c(=O)n3C)C1 (centres undefined) | 13%
CCOC(CNC(=O)c1ccc2c(c1)ncn2-c1cccc(F)c1)OCC | -13%
COCCN1CCC(CNCc2c(C(=O)N3CCCCC3)nc3c(C)cccn23)C1 (centres undefined) | -19%
CC(CC(=O)O)CC(=O)Nc1nncs1 (centres undefined) | 8%
CCN(c1ccccc1)S(=O)(=O)c1ccc(C(=O)Nc2nnc(C3CC3)o2)cc1 | -6%
Cc1c(Cl)c([N+](=O)[O-])nn1CC(=O)NC(C)c1ccccc1 (centres undefined) | -10%
CCc1nnc(NC(=O)CSc2nc(-c3ccccc3)cc(-c3ccc(OC)cc3)c2C#N)s1 | -4%
COc1ccc(NC(=O)Cn2c(=O)n(-c3cc(C)cc(C)c3)c(=O)c3oc4ccccc4c32)cc1OC | 7%
COC(=O)c1ccc(C2C(Oc3ccccc3C)C(=O)N2CCc2ccc(OC)c(OC)c2)cc1 (centres undefined) | 5%
COc1ccc2nc(NC(=O)c3cc(C)oc3C)sc2c1 | 0%
CCOc1ccc(C(C)NC(=O)CN2C(=O)NC3(CCCCC3)C2=O)cc1OCC (centres undefined) | -11%
O=C(NCc1ccc2c(c1)CCN2C(=O)c1ccncc1)c1ccccc1Br | 18%
CCC(Cc1ccccc1)NS(=O)(=O)c1csc(C(N)=O)c1 (centres undefined) | -7%
CC1C(=O)NN=C1C(=O)N/N=C/c1ccco1 (centres undefined) | -21%
COC(=O)/C=C/CSC1=N/C(=C/c2ccc(-n3cncn3)cc2)C(=O)N1 | -5%
CCOc1ccc(C(=O)NCC(=O)NCC(c2ccc(OC)cc2)N2CCOCC2)cc1OCC (centres undefined) | 5%
O=C(NCC(=O)N1CCC(N2CCCCC2)CC1)C1CCCCC1 | -8%
Cc1ccc(N2CC(C(=O)Nc3cccnc3)CC2=O)cc1Cl (centres undefined) | 3%
CCN(C(=O)c1cc2c(=O)n3ccccc3nc2n1CCCOC)C1CCCCC1 | 12%
Cc1ccc(S(=O)(=O)N2CCCOC2CNC(=O)C(=O)NCCN2CCOCC2)cc1 (centres undefined) | -9%
O=C(/C=C/NNC(=O)c1ccc(Br)cc1)c1ccccc1 | -9%
CCC(=O)N1N=C(c2ccc(OC)cc2)CC1c1cn(-c2ccccc2)nc1-c1cccs1 (centres undefined) | -5%
O=S(=O)(c1ccccc1)N1CCN(S(=O)(=O)N2CCCCCC2)CC1 | -26%
Cn1c(=O)c2c(nc(OCCc3ccccc3)n2C)n(C)c1=O | ?
CC1CCN(CC(CS(=O)(=O)c2ccc([N+](=O)[O-])cc2)N2CCC(C)CC2)CC1 (centres undefined) | ?
O=C(c1cccc2c1C(=O)N(Cc1cccnc1)C2)N1CCN(c2ccccc2)CC1 | 6%
CC(C(=O)Nc1ccc(F)c(F)c1)N1CCN(C)CC1 (centres undefined) | -23%
FC(F)(F)c1cccc(-c2noc(CN3CCOCC3)n2)c1 | -1%
O=C(O)Cn1ccc2cc(S(=O)(=O)N3CCCCCC3)ccc21 | 8%&7%
O=S(=O)(NCCCCCNS(=O)(=O)c1ccc(F)cc1)c1ccc(F)cc1 | 10%
CCc1ccc(NC(=O)c2ccccc2NC(=O)C2CCCO2)cc1 (centres undefined) | 3%
CCOc1ccc(NS(=O)(=O)c2ccc(OCC(=O)NCCCOC)cc2)cc1 | 3%
O=C(O)CC1(O)C(=O)N(Cc2ccccc2)c2ccccc21 (centres undefined) | -6%
Cc1nnc(SCC(=O)Nc2ccccc2C(=O)NC2CC2)s1 | ?
CCCCNS(=O)(=O)c1ccc2nc(SCC(=O)c3ccccc3OC)[nH]c2c1 | 22%

Overlap with the part before: four compounds; new compounds follow.
SMILES | VDR inh
CCOc1ccc(NS(=O)(=O)c2ccc(OCC(=O)NCCCOC)cc2)cc1 | 3%
O=C(O)CC1(O)C(=O)N(Cc2ccccc2)c2ccccc21 (centres undefined) | -6%
Cc1nnc(SCC(=O)Nc2ccccc2C(=O)NC2CC2)s1 | ?
CCCCNS(=O)(=O)c1ccc2nc(SCC(=O)c3ccccc3OC)[nH]c2c1 | 22%
Cc1nc(N/N=C/c2ccc(O)cc2)c2cnn(-c3ccccc3)c2n1 | ?
Cc1ccc(Cn2cnc3c(cnn3-c3ccc(F)cc3)c2=O)cc1 | 9%
O=C(Oc1c(CN2CCOCC2)cc(Cl)c2cccnc12)c1ccccc1F | -4%
CCN1C(=NCCc2ccccn2)N[C@@H](c2cccc(C(F)(F)F)c2)C(C(=O)OC)=C1C | 0%
CC(C)c1ccc(NC(=O)Cn2c3ncccc3c(=O)n2-c2ccccc2)cc1 | 9%
N#CCCNC(=O)CCN1CCCCC1 | 9%
COc1cccc(CNC(=O)c2cc3cc(C)ccc3n2C)c1 | 8%
CCCCOc1ccc(C(=O)N/C(=C\c2ccc([N+](=O)[O-])cc2)C(=O)OCc2ccco2)cc1 | 12%
Cc1ccc(NC(=O)c2cc(S(=O)(=O)N3CCc4ccccc43)cn2C)cc1C | -26%
COc1ccccc1NC(=O)CN(c1ccc(C)cc1)S(=O)(=O)c1c(C)n[nH]c1C | 9%
O=C(N1CCOCC1)C(F)(F)C(=O)N1CCOCC1 | -5%
CCOc1ccc(CCNC(=O)Cc2ccc(S(=O)(=O)N3CCOCC3)s2)cc1OCC | ?
CCc1ccccc1Nc1nn2c(=O)c3ccc(C(=O)Nc4ccc(OC)cc4)cc3nc2s1 | 1%
O=c1c2cccnc2nc2n1CCCCC2 | 16%
CC1(C)O[C@@H]2C[C@H]3[C@@H]4C[C@H](F)C5=CC(=O)C=C[C@]5(C)[C@H]4[C@@H](O)C[C@]3(C)[C@]2(C(=O)CO)O1 | 2%
COc1ccccc1NC(=O)CSc1nnc(CNC(=O)c2ccccc2F)o1 | -2%
COc1cccc(CC(=O)OCC(=O)c2cc(OC)ccc2OC)c1 | 15%
Cc1cc(C)c(C#N)c(SCC(=O)C2CC2)n1 | 1%
CC(C)Nc1nc(NC(C)C)nc(N(C)C#N)n1 | 14%
Cc1ccc(C(=O)COC(=O)c2ccccc2NC(=O)c2ccccc2)cc1[N+](=O)[O-] | -11%

Pulled one by one from the entries so far (7):
SMILES | VDR inh
Cc1cc(C)c(C#N)c(SCC(=O)C2CC2)n1 | 1%
O=C(Oc1c(CN2CCOCC2)cc(Cl)c2cccnc12)c1ccccc1F | -4%
CCc1ccccc1Nc1nn2c(=O)c3ccc(C(=O)Nc4ccc(OC)cc4)cc3nc2s1 | 1%
Cc1ccc(NC(=O)c2cc(S(=O)(=O)N3CCc4ccccc43)cn2C)cc1C | -26%
COc1cccc(CNC(=O)c2cc3cc(C)ccc3n2C)c1 | 8%
N#CCCNC(=O)CCN1CCCCC1 | 9%
CCOc1ccc(CCNC(=O)Cc2ccc(S(=O)(=O)N3CCOCC3)s2)cc1OCC | ?

The main list resumes with the 5 entries that preceded the break.
SMILES | VDR inh
COc1ccccc1NC(=O)CSc1nnc(CNC(=O)c2ccccc2F)o1 | -2%
COc1cccc(CC(=O)OCC(=O)c2cc(OC)ccc2OC)c1 | 15%
Cc1cc(C)c(C#N)c(SCC(=O)C2CC2)n1 | 1%
CC(C)Nc1nc(NC(C)C)nc(N(C)C#N)n1 | 14%
Cc1ccc(C(=O)COC(=O)c2ccccc2NC(=O)c2ccccc2)cc1[N+](=O)[O-] | -11%
Cc1ccc2oc(=O)n(CC(=O)OC(C)C)c2c1 | 14%
COc1cccc(CNS(=O)(=O)c2ccc3c(c2)CCN3C(=O)C2CCC2)c1 | -12%
Clc1ccccc1COc1ccccc1-c1nnco1 | -5%
O=C(CN1CCN(c2ccccc2O)CC1)NNC(=O)c1ccc(Cl)cc1 | -23%
CCOC(=O)Cc1ccc(NCc2ccc(Cl)cc2)cc1 | ?
COc1cccc(N2CC(O)Cn3c2nc2c3c(=O)n(CCCc3ccccc3)c(=O)n2C)c1 (centres undefined) | -17%
CCOC(=O)CN1CC23C=CC(O2)C(C(=O)Nc2ccc4c(c2)OCO4)C3C1=O (centres undefined) | -13%
CSc1ccc(NC(=O)N2CCN(c3nc4ccccc4s3)CC2)cc1 | -16%
Cc1ccc(C(=O)N/C(=C/c2ccccc2)C(=O)NC(Cc2ccccc2)C(=O)O)cc1 (centres undefined) | -15%
CC(=O)C1C(c2ccccc2Cl)NC(=O)NC1(O)C(F)(F)F (centres undefined) | -12%
O=c1[nH]c2ccc(S(=O)(=O)N3CCN(c4ccccc4)CC3)cc2[nH]c1=O | -1%
Cc1c(Cl)cccc1-n1c(SCC(=O)NCc2ccccc2Cl)nnc1-c1ccncc1 | 7%
COc1cccc2cc(C(=O)C3=C(O)C(=O)N(CCN(C)C)C3c3ccc(F)cc3)oc12 (centres undefined) | -9%
COc1ccccc1CNC(=O)c1ccc2c(=O)n3c(nc2c1)CCCCC3 | -17%
O=c1[nH]c(=O)n(C2OC(CO)C(O)C2O)cc1Br (centres undefined) | 20%
O=C(OCc1cn(-c2ccc(Cl)c(Cl)c2)nn1)c1ccccc1 | 2%
CN(C(=O)c1ccc(Oc2ccc([N+](=O)[O-])cc2)cc1)C1CCCCC1 | -20%
CC[C@H]1C(O)C[C@H]2CCN3C(=O)CCC[C@H]1[C@H]23 (some centres undefined) | ?
COc1c(C(=O)Nc2ccccc2N2CCOCC2)cc2ccccc2c1Br | 10%
CCCC(=O)NC(Nc1c(C)n(C)n(-c2ccccc2)c1=O)C(Cl)(Cl)Cl (centres undefined) | 4%
CC(C)(CO)NC(=O)CCCOc1ccc(Cl)cc1Cl | 6%
CCC(=O)Nc1ccc(-c2nnc(SCC(=O)NCC3CCCO3)n2C)cc1 (centres undefined) | 7%
O=C1/C(=C/c2cccnc2)SC(=S)N1C1CCS(=O)(=O)C1 (centres undefined) | -21%
Cc1cc(=O)oc2cc(OC(=O)c3ccccc3)ccc12 | 1%
O=C(COC(=O)COc1ccccc1[N+](=O)[O-])Nc1ccc(S(=O)(=O)N2CCCCC2)cc1 | 1%
COc1cccc2c1C(=O)c1c(O)c3c(c(O)c1C2=O)C[C@@](O)(C(=O)CO)C[C@@H]3O[C@H]1C[C@H](N)[C@@H](O)[C@H](C)O1 | -9%
CCOc1cccc(N2C(=O)CC(NNC(=O)c3ccc(Br)o3)C2=O)c1 (centres undefined) | 4%
N#Cc1c(SCC(N)=O)nsc1SCc1ccccc1Cl | 11%
CCc1nn(CC(=O)NCc2cccc(OC)c2)c(=O)c2cc3cc(F)ccc3n12 | 4%
Cc1ccc(S(=O)(=O)N2CCC(C(=O)OC(C)C(=O)NC3CCCCC3C)CC2)cc1C (centres undefined) | 5%
Cc1ccccc1Nc1c(-c2ccc(N3CCOCC3)cc2)nc2ccc(Br)cn12 | -17%
C=CCn1c(SCC(=O)N2CCOCC2)nc2sc3c(c2c1=O)CCCC3 | -10%
Cc1ccc(C(=O)COC(=O)CN2C(=O)C3C4C=CC(C4)C3C2=O)cc1[N+](=O)[O-] (centres undefined) | -15%
Cc1sc(NC(=O)COc2ccc(C(C)(C)C)cc2)c(C(=O)OC(C)C)c1C | -3%

Molecules above with a tert-butyl group, in the order listed:
SMILES | VDR inh
CC(C)(C)c1csc(SCC(=O)Nc2ccc(Cl)cn2)n1 | 22%
Cc1sc(NC(=O)COc2ccc(C(C)(C)C)cc2)c(C(=O)OC(C)C)c1C | -3%

This is a subset (hit frequency here may not be typical).
